# Source: PubChem BioAssay (National Center for Advancing Translational Sciences (NCATS))
# VACV Venus inh: vaccinia inhibition (Venus reporter); Vaccinia virus Venus reporter expression, fluorescence; Potency, µM (doses to about 36.5 µM), inactives show at the highest dose activity change, negative = inhibition, most hits filed as inhibitors; 0.46% of 330,000 active; AID 720580; active means well fitted inhibition curve with a large enough effect; inconclusive means small, poorly fitted or top-dose-only effect; inactive means no such curve, though single readings can be large or run the other way; tested in A549 cells; further: nearly all actives have a fitted effect of over 30% in size; inactives centre near -10
# Vaccinia mCherry: vaccinia inhibition (mCherry reporter); Vaccinia virus mCherry reporter infection, fluorescence; about a quarter of the inactives have no number; Potency, µM (series often up to 36.5 µM), inactives show top-dose activity change, negative = inhibition, most hits filed as inhibitors; 0.63% of 310,000 active; AID 720579; active = well fitted inhibition curve with a large enough effect; inconclusive = small, poorly fitted or top-dose-only effect; inactive = no such curve, though single readings can be large or run the other way; tested in A549 cells; further: nearly all actives have a fitted effect of over 35% in size; inactives centre near -10
# * marks the source's active call; other numbers are inactive results; i = inactive; ? = inconclusive; · = no result given; [ ] = another dose, or the depositor's remark. On the % scale 0 is the no-effect control and ±100 the full control effect; potency means the concentration at half of the fitted maximal effect.
# Below each SMILES: VACV Venus inh	Vaccinia mCherry
C=CCOc1c(Br)cc(/C=N/n2c(CC)n[nH]c2=S)cc1Br
 : ?	?
COC(=O)C1CCN(CC(=O)Nc2ccccc2Sc2ccccc2)CC1
 : -15%	i
COc1cc(C(=O)NCC2CCCO2)ccc1OCc1ccccc1Cl (centres undefined)
 : -16%	-1%
Cc1ccc2c(c1)CCCN2N=O
 : -15%	-11%
CCOC(=O)C1=C(C)NC(=O)CC1c1cc(OC)c(OC)cc1Br (centres undefined)
 : -23%	-12%
Cc1oc2c(c1C(=O)Nc1ccccc1Br)C1=NCCN1C=N2
 : -16%	-19%
CC(=O)c1ccc(NC(=O)C(=O)c2cn(CC(=O)N3CCCCC3)c3ccccc23)cc1
 : -6%	-10%
CCn1c(-c2ccc(N)cc2)nc2ccccc21
 : -14%	i
CCOC(=O)C1=C(CSc2nc3c(cc2C#N)CCC3)OC(N)=C(C#N)C1c1ccccc1 (centres undefined)
 : -8%	i
COc1ccc(CCNC(=O)C/C(C)=N/NC(=O)c2ccc(N)cc2)cc1OC
 : -20%	·
O=[N+]([O-])c1cccc(Cl)c1CSc1ccccn1
 : -10%	-27%
Oc1ccc2c3c1O[C@H]1c4oc5ccccc5c4C[C@@]4(O)C(C2)N(CC2CC2)CC[C@]314
 : -10%	i
Cc1cc2cc(CCNC(=O)c3cccs3)c(=O)[nH]c2cc1C
 : -23%	-22%
COC(=O)C1OC(=O)C2OC23[C@]2(C)C(OC(C)=O)CC4C(C)(C)C(=O)CC[C@]4(C)C2CC[C@@]13C (some centres undefined)
 : -8%	-7%
Cc1ccc(OCC(=O)NCCCNC(=O)c2ccncc2)cc1C
 : 0%	-10%
CCCn1c(=S)[nH]c2ccc(C(F)(F)F)cc21
 : 4%	1%
CC(C)Cc1nc2cc(NS(=O)(=O)N(C)C)cc(C(=O)N3CCc4sccc4C3)c2n1C
 : -7%	0%
CCOC(=O)CSc1nc(-c2ccccn2)ncc1OC
 : -14%	?
CC1(c2ccc(Cl)cc2)CC(C)(C)N(C(=O)c2ccccc2)c2ccccc21 (centres undefined)
 : -12%	-1%
COc1ccc(CNC(=O)CSc2nc3ccccc3nc2Cc2ccccc2OC)cc1
 : -5%	-16%
CCCn1nc(CC(=O)O)c2ccccc2c1=O
 : ?	·
COc1ccc(-n2ccnc(NCCc3ccccc3)c2=O)cc1OC
 : -12%	-23%
CCOC(=O)c1cccc(NC(=O)CCS(=O)(=O)c2ccc3c(c2)CC(=O)N3C)c1
 : 2%	-1%
O=C(NCCCN1CCOCC1)C(Sc1ccccc1)c1ccccc1 (centres undefined)
 : -20%	·
Cc1ccc(Cn2cc(CN3CC(N(C)C)CS3(=O)=O)nn2)cc1 (centres undefined)
 : 8%	11%
CCOC(=O)COc1ccc(-c2nnn(CC(=O)Nc3ccccc3)n2)cc1
 : 4%	4%
c1ccc(Cc2cc[n+](Cc3ccccn3)cc2)cc1
 : -9%	-1%
O=C(NCCc1ccccc1)c1c2c(nc3ccccc13)C(=O)N(C1CCCCC1)C2
 : -3%	i
Cc1oc2ncn(CC(C)C)c(=O)c2c1C(=O)NCCCN1CCC(C)CC1
 : -24%	-21%
CC(C)C(=O)N1CCN(c2ccc([N+](=O)[O-])cc2Cl)CC1
 : -11%	i

# Structures above that have a thiophene ring, fused or not, in the order listed:
# Below each SMILES: VACV Venus inh	Vaccinia mCherry
Cc1cc2cc(CCNC(=O)c3cccs3)c(=O)[nH]c2cc1C
 : -23%	-22%
CC(C)Cc1nc2cc(NS(=O)(=O)N(C)C)cc(C(=O)N3CCc4sccc4C3)c2n1C
 : -7%	0%

# Quoted from the listing:
# Cc1ccc(OCC(=O)NCCCNC(=O)c2ccncc2)cc1C @ Vaccinia mCherry: -10%
# COc1ccc(CNC(=O)CSc2nc3ccccc3nc2Cc2ccccc2OC)cc1 @ VACV Venus inh: -5%

# The listing picks up with the 2 entries that preceded the break.
# Below each SMILES: VACV Venus inh	Vaccinia mCherry
Cc1oc2ncn(CC(C)C)c(=O)c2c1C(=O)NCCCN1CCC(C)CC1
 : -24%	-21%
CC(C)C(=O)N1CCN(c2ccc([N+](=O)[O-])cc2Cl)CC1
 : -11%	i
COc1ccccc1C1CCN(C(=O)c2ccc(C(C)(C)C)cc2)CC1
 : ?	?
CN1CCN(S(=O)C23CC4CC(CC(C4)C2)C3)CC1 (centres undefined)
 : -15%	i
COc1ccc(C2=NS(=O)(=O)N(C)C(C(=O)NC3CCCC3)=C2)cc1
 : -14%	i
Cc1cc(C)cc(NC(=O)CSc2oc(-c3ccco3)nc2S(=O)(=O)c2ccccc2)c1
 : -5%	-12%
COc1ccc(Nc2nc3ccc(C)cn3c(=O)c2/C=N/O)cc1
 : -23%	?
COc1cc(CN2C(=O)C(CCc3ccccc3)ON=C2c2cnccn2)cc(OC)c1 (centres undefined)
 : -5%	-1%
Cc1ccc(NS(=O)(=O)c2ccc(C(=O)N3CCCC(C(F)(F)F)C3)cc2)cc1 (centres undefined)
 : -12%	i
COc1ccc(CCN2C(=O)NC(NC(=O)CC(C)C)(C(F)(F)F)C2=O)cc1OC (centres undefined)
 : -8%	-18%
C[C@]12CC[C@H](O)CC1=CCC1C2CC[C@]2(C)C(=O)[C@H](Br)CC12 (some centres undefined)
 : -14%	i
O=C(Nc1nccs1)c1nc[nH]c1C(=O)N1CCc2ccccc2C1
 : -10%	i
CCOc1ccc(/C=C/c2nc(C#N)c(N3CCN(c4ccc(OC)cc4)CC3)o2)cc1
 : -26%	i
CCOc1ccc(N(Cc2ccc(OC)c(OC)c2)C(=O)c2ccco2)cc1
 : -8%	-8%
CCN(CC)S(=O)(=O)c1ccc(NN=C2CCN(C)CC2)c([N+](=O)[O-])c1
 : 2%	-5%
O=C(COC(=O)Cc1ccc(Cl)cc1)NCc1ccco1
 : 3%	-11%
Cc1cc2cc(CNC(=O)c3ccc(S(=O)(=O)N4CCCCC4)cc3)ccc2[nH]1
 : -3%	0%
Cc1ccccc1N(C(=O)c1csnn1)C(C(=O)NC1CCCC1)c1ccncc1 (centres undefined)
 : -4%	-8%
CN(c1ccccc1)S(=O)(=O)c1cccc(NC(=O)CCN2C(=O)C3CCCCC3C2=O)c1 (centres undefined)
 : -8%	-20%
COc1ccc(OC)c(C2CC(=O)Nc3cc(OC)c(OC)c(OC)c32)c1 (centres undefined)
 : ?	·
COc1ccc(CN2C(=O)C(CC(=O)NCCc3ccccn3)CC(C(=O)N3CCOCC3)=C2C)cc1 (centres undefined)
 : 3%	28%
O=C(O)CC(c1cccc(C(F)(F)F)c1)N1CCS(=O)(=O)CC1 (centres undefined)
 : -16%	i
CCN(CC)C(=O)c1sc2c(c1C)c(=O)n(-c1ccc(OC)cc1OC)c(=O)n2CC(=O)Nc1ccccc1
 : 3%	-3%
Cc1ccccc1C(=O)Nc1ccc(N2CCN(C(=O)c3ccco3)CC2)cc1
 : -15%	-4%
C/C=C1\COC(C(=O)NCCN2CCCC2)(C(F)(F)F)C=C1C=C1CCCCC1 (centres undefined)
 : ?	-25%
O=C(CCCCCn1c(=O)c2sccc2n(Cc2ccccc2Cl)c1=O)NCc1ccc2c(c1)OCO2
 : -25%	-25%
CC1=C(C(=O)c2ccccc2)C(c2ccc(OC(F)F)cc2)NC(=S)N1 (centres undefined)
 : ?	-12%
CS(=O)(=O)c1ccccc1-c1nnc(NC(=O)CCS(=O)(=O)c2ccc(Cl)cc2)o1
 : ?	?
Cc1ccc(S(=O)(=O)N2CC3(O)CN(C(=O)OC(C)C)N(C(=O)OC(C)C)CC3(OC(=O)Nc3cccs3)C2)cc1 (centres undefined)
 : -14%	i
COc1ccc(CNC(=O)COC(=O)c2cccs2)cc1
 : 7%	12%
O=C1OCCC1=Cc1ccccc1
 : 2%	-13%
C[C@]12C(=O)N(c3ccccc3)C(=O)N1[C@@H]1c3ccccc3OC[C@@H]1[C@H]2c1ccccc1
 : -29%	i

# 6 records picked at random from the list so far:
# Below each SMILES: VACV Venus inh	Vaccinia mCherry
Cc1cc(C)cc(NC(=O)CSc2oc(-c3ccco3)nc2S(=O)(=O)c2ccccc2)c1
 : -5%	-12%
COc1ccc(CNC(=O)COC(=O)c2cccs2)cc1
 : 7%	12%
CN(c1ccccc1)S(=O)(=O)c1cccc(NC(=O)CCN2C(=O)C3CCCCC3C2=O)c1 (centres undefined)
 : -8%	-20%
Cc1cc2cc(CNC(=O)c3ccc(S(=O)(=O)N4CCCCC4)cc3)ccc2[nH]1
 : -3%	0%
CCOc1ccc(N(Cc2ccc(OC)c(OC)c2)C(=O)c2ccco2)cc1
 : -8%	-8%
Cc1ccc(NS(=O)(=O)c2ccc(C(=O)N3CCCC(C(F)(F)F)C3)cc2)cc1 (centres undefined)
 : -12%	i

# The results go on:
# Below each SMILES: VACV Venus inh	Vaccinia mCherry
COC(=O)N1C(=O)[C@@](c2ccc(OC)cc2)(C(C)C)N1C(=O)OC
 : ?	?
COc1cc2c(cc1OC)C13CCN4CC5=CCOC6CC(=O)N2C1C6C5C3C4 (centres undefined) (tested in a mixture with another compound)
 : 6%	i
O=C(CNC(=O)Cc1cccc2ccccc12)NCc1ccccc1F
 : -8%	-14%
O=C(Nc1cccc(S(=O)(=O)N2CCCCCC2)c1)c1ccc(Cl)nc1
 : -13%	i
O=C(C(=O)N1CCCN(Cc2ccc(F)cc2)CC1)c1ccccc1
 : 11%	-7%
CCOc1ccc(NS(=O)(=O)N(C)C)cc1
 : -11%	-18%
CCCCC(CCC(=O)NNC(=O)Cc1ccccc1)C(=O)O (centres undefined)
 : -11%	-10%
Cc1ccc(S(=O)(=O)NCCC(=O)NCCOc2ccccc2)cc1
 : -10%	-16%
Cc1c(O)nc(SC2CC(=O)N(c3cc(Cl)cc(Cl)c3)C2=O)[nH]c1=O (centres undefined)
 : -8%	-18%
COc1ccc(NC(=O)Cn2nnc(C(=O)NCc3cccc(OC)c3)c2N)cc1
 : -5%	-14%
COc1ccccc1C1CC(=O)Oc2cc(C)c(Cl)cc21 (centres undefined)
 : -22%	-2%
CCC(C)(C)NC(=O)C(c1ccc(OC)cc1)N(Cc1ccccc1)C(=O)CCC(=O)Nc1cc(C)on1 (centres undefined)
 : 9%	-8%
N=C1c2ccccc2CN1NC(=O)c1ccc(F)cc1
 : -15%	-23%
CN(C)CC(C)(O)c1ccc2c(c1)CN(Cc1cn(C)c3ccccc13)CCO2 (centres undefined)
 : 12%	-12%
COCCNC(=O)CCc1nc(-c2ccccc2)no1
 : -13%	·
O=C(NCc1nnc(SCC(=O)N2CCOCC2)o1)c1c(F)cccc1F
 : -13%	-16%
CC(=O)c1cccc(NC(=O)CCn2nc(C)c(S(=O)(=O)N3CCCCC3)c2C)c1
 : -12%	-15%
CC1CC(C)CN(C(=O)c2ccc(C#N)cc2)C1 (centres undefined)
 : -5%	-4%
O=C(Cc1ccccc1)NN1C(=O)/C(=C/c2ccc(C(=O)O)cc2)SC1=S
 : 8%	-13%
COC(=O)C(C(=O)NCC1CCCO1)C1CCCC1 (centres undefined)
 : -11%	-11%
CC(C)NS(=O)(=O)c1ccc2[nH]c3nc(SCC(=O)Nc4ccc(F)c(F)c4)nnc3c2c1
 : -8%	-19%
Cc1cc(C)cc(NC(=O)C(NCCN2CCOCC2)c2ccccc2)c1 (centres undefined)
 : -4%	-1%
COc1cccc(NC(=O)CN(C)C(=O)CC2CCCCC2)c1
 : -1%	-11%
Cc1c(C(=O)Nc2ccncc2)sc2nc(-c3ccc(F)cc3)cn12
 : ?	-22%
COC(=O)c1ccccc1COc1cccn2c(N(C)C(=O)CCC3CCCC3)c(C)nc12
 : -3%	32%[activator]
COc1ccccc1C(=O)Nc1ccnn1C1CCN(C/C=C/c2ccc(F)cc2)CC1
 : -30%	-19%
COc1ccc2c(c1)nc(SCC(=O)c1ccc(Br)s1)n2C
 : -9%	-15%
O=C1CN(C(=O)c2c(F)cccc2Cl)C(c2ccc(F)cc2)c2cc(Br)ccc2N1 (centres undefined)
 : -6%	-8%
COc1ccc(C)cc1NC(=O)CCS(=O)(=O)c1cc2c3c(c1)CCN3C(=O)CC2
 : 5%	-10%
CC(NC(=O)Cn1cc(Br)c([N+](=O)[O-])n1)c1ccccc1 (centres undefined)
 : -16%	-11%
CCCN(Cc1cc2ccc(C)cc2[nH]c1=O)S(=O)(=O)c1ccccc1
 : -26%	-5%
Cc1ccc(C(=O)NC(=S)Nc2c(C)ccc3nsnc23)cc1
 : -7%	-28%
COc1ccc(C#Cc2c(-c3ccsc3)oc3ccc(N4CCOCC4)cc23)cc1
 : -17%	?
O=C(NCCc1nc2ccccc2n1Cc1ccc(F)cc1)c1ccco1
 : -12%	-6%
O=C(CC(=O)Nc1cccc(F)c1)Nc1cccc(F)c1
 : -7%	i
CCc1ccc(NC(=O)C2=CC(c3ccc4c(c3)OCO4)=NS(=O)(=O)N2C)cc1
 : 2%	-4%
CC(=O)NCCNc1ccc([N+](=O)[O-])cn1
 : 6%	-5%
CC(NC(=O)c1cccc(Nc2nc3ccccc3n3nnnc23)c1)c1ccccc1 (centres undefined)
 : 10µM*	?
CCOC(=O)C1=C[C@@H](c2ccccc2)N(S(=O)(=O)c2ccc(C)cc2)[C@H]1c1ccccc1Cl
 : -8%	-1%
CCN(CC)c1cc(C)c2cc(NC(=O)c3cccc(OC)c3)ccc2n1
 : -17%	-17%
CCOC(=O)C1=NOC2(C1)C(=O)Nc1ccc(OC(F)(F)F)cc12 (centres undefined)
 : 1%	5%
Cc1cc(C)c(O)c(NC(=S)NC(=O)Cc2ccccc2)c1
 : ?	-8%

# Rows are unselected; about 0.82% have a hit in one of these screens.
